YopH inh – YopH (Yersinia) phosphatase inhibition; inhibition, %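 (about 10 µM by stock and volumes)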; fluorescence Ex485/Em525; 0.16% of 140,000 active; AID 898;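 active means inhibition of 50% or more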;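 further: controls were vehicle for no effect and minimum signal wells for full effect; inactives centre near -20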
Mtb H37Rv – M. tuberculosis H37Rv growth inhibitors, H37Rv strain (AID 1626); M. tuberculosis H37Rv growth inhibition; higher % means a stronger effect; inhibition, % at 10 µM; hits with a dose series show IC50 in µM; 0.95% of 220,000 active;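 active means confirmed in a dose series; inconclusive means inhibition above 80% but not taken into the dose series; inactive means below 80% or under 30% at every dose of the series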;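 further: bacteria incubated seven days before Alamar blue readout; 0% = bacteria only wells and 100% = bacteria with antibiotic wells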
RecA splice inh – inhibitors of M. tuberculosis RecA intein splicing. inhibition, %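 (about 9 µM by stock and volumes)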. cell-free RecA intein splicing, fluorescence. P9WHJ3. AID 2221. 0.75% of 290,000 active; in the data active means inhibition above about 30%; inconclusive means no clear call, values can overlap the other calls;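 further: 0% = vehicle wells and 100% = reference inhibitor control wells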
Target sequence (P9WHJ3 whole entry, looked up, canonical isoform): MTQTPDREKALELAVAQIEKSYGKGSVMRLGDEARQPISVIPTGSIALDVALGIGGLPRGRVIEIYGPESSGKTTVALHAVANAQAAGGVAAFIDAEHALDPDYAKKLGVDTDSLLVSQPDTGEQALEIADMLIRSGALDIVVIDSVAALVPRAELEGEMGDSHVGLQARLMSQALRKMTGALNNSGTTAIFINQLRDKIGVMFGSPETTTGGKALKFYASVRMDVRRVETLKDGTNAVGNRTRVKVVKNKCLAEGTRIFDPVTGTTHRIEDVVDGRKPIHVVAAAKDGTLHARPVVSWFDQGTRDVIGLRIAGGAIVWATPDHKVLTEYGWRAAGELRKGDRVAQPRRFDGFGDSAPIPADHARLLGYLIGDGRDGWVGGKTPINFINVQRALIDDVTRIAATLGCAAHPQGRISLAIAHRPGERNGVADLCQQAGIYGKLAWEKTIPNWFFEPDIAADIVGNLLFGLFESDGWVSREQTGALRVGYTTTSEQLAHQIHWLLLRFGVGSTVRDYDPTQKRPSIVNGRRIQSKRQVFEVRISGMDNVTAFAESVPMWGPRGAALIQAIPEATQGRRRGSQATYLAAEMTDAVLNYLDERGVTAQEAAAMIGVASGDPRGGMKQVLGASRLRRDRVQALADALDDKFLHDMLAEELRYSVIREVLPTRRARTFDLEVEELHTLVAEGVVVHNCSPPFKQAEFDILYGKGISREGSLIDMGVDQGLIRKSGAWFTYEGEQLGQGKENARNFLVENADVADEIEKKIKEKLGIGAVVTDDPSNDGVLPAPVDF
Mtb bLac sens – beta-lactam sensitization of Mtb H37Rv. 0.27% of 330,000 active. AID 434955. M. tuberculosis H37Rv growth with meropenem, percent inhibition; hits of this screen are not shown here. inhibition, % at 25 µM;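 active means about 74% or more and at least 40 points above the plate without the antibiotic, then above 30% in a dose series; inconclusive means first-round hits that could not be retested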;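 further: growth measured after seven days incubation then overnight dye step; 0% = bacteria only wells and 100% = bacteria with antibiotic; twin plates without the antibiotic show which effects depend on it; some results filed as inactive read as strong as hits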
Arbovirus anti – arbovirus infection inhibition. arbovirus infection cell-based antiviral screen. inhibition, % at 10 µM. 0.37% of 200,000 active. AID 1251;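 active means inhibition from about 30%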;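 further: bluetongue infection of BSR cells; cell survival read as ATP light after 72 h; 0% = infected wells without compound and 100% = uninfected wells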
Arbovirus anti repeat – second read-out of Arbovirus anti, no call of its own (marks repeat the call); inhibition, %; measured here: 10K subset replicate screen; many hits read low in the repeat;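 first of two repeat runs on a subset; 0% = infected and 100% = uninfected wells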
Numbers without * were called inactive; ? = inconclusive; · = not tested or not shown. An excerpt (hit frequency here may not be typical).

SMILES | YopH inh | Mtb H37Rv | RecA splice inh | Mtb bLac sens | Arbovirus anti | others
COc1ccc(NC(=O)CNS(=O)(=O)c2cccs2)c(OC)c1 | -23 | -8% | -0.7 | -6 | -6
O=[N+]([O-])C(/C=C(\Cl)[N+](=O)[O-])=C(N1CCCCC1)N1CCCCC1 | · | -5% | · | 49 | -15
CCOc1ccc(NC(=O)c2c(NC(=O)CN3CCCC3)sc3c2CCC3)cc1 | · | · | 0.7 | 3 | ·
COc1ccc(-c2cc(C(=O)OCC(=O)NC(C)(C)C)c3ccccc3n2)cc1 | · | 6% | -0.3 | 45 | -2
COc1cccc(C2=NN(C(=O)c3ccc(C)o3)C(O)(C(F)(F)F)C2)c1 (stereo not drawn) | · | 19% | -1.7 | 7 | 3
CCn1nnnc1-c1ccc(OC)c(S(=O)(=O)Nc2ccc(C)c(C)c2)c1 | -11 | · | 1.5 | 2 | 19
CCn1c(SCC(=O)NC2CCCc3ccccc32)nnc1-c1cccs1 (stereo not drawn) | -35 | 9% | -0.3 | -1 | -1
Cc1nnc(SCc2cc(=O)[nH]c(=S)[nH]2)s1 | · | 1% | -0.5 | 0 | 5
CCOC(=O)/C=C1\SCC(=O)N1CC(=O)NC(c1ccccc1)c1ccccc1 | -22 | 5% | 0.0 | 6 | -6
CN(C)CCCNC(=O)C(=O)NCC1OCCN1S(=O)(=O)c1cc(F)ccc1F (stereo not drawn) | · | · | -0.8 | -2 | ·
Cc1c(Cl)cccc1NC(=O)Nc1cc(C(C)(C)C)on1 | · | · | 1.0 | 97 | ·
Cc1ccc2c(c1)C(O)(CC(=O)c1cccnc1)C(=O)N2 (stereo not drawn) | -11 | 2% | 2.3 | -2 | -3
O=C(CC1(O)C(=O)Nc2cc(Cl)cc(Cl)c21)c1ccccc1O (stereo not drawn) | -39 | -2% | -2.8 | -2 | -4
CCOCCn1c(N2CCN(c3ccc(OC)cc3)CC2)nc2c1c(=O)n(C)c(=O)n2C | -22 | 4% | -3.6 | -10 | 0
O=C(COC(=O)c1nc(Cl)ccc1Cl)NNC(=O)c1cccs1 | · | · | 0.2 | -2 | ·
CN(C(=O)c1ccc(NC(=O)C2CC=CCC2C(=O)O)cc1)c1ccccc1 (stereo not drawn) | -14 | -1% | · | -4 | 8
Cn1cccc1C(=O)NC(=O)COC(=O)c1ccc(O)cc1 | 11 | -6% | -5.4 | -3 | -2
COc1nccnc1NS(=O)(=O)c1ccc(NC(=O)c2ccc(F)cc2)cc1 | · | · | -0.6 | 2 | ·
COc1ccc(N2CCC(CNC(=S)Nc3cccc(OC)c3)C2)cc1 (stereo not drawn) | -10 | 4% | 7.5 | 0 | -6
COC(=O)c1ccc(-c2ccc(CNCC(O)c3ccccc3)o2)cc1 (stereo not drawn) | -25 | 3% | 5.9 | 9 | -3
CCN(C(=O)CSc1nnc(-c2ccncc2)o1)c1ccccc1 | · | · | -1.7 | -21 | ·
O=C(Cc1ccccc1)Nc1cc([N+](=O)[O-])ccc1N1CCOCC1 | · | 1% | -1.4 | 15 | 0
COc1ccc(C(=O)N/C(=C/c2ccc(Cl)cc2)C(=O)Nc2ccc(C(=O)O)cc2)cc1 | · | · | 0.6 | -1 | ·
CC(=O)N1CCN(C(=O)c2cc(-c3cccc4ccccc34)nc3ccccc23)CC1 | · | · | -0.2 | 6 | ·
CCn1c(NC(=O)c2nn(C)cc2Br)nc2ccccc21 | -25 | 6.6µM* | 0.8 | 98 | -10
Next results
SMILES | YopH inh | Mtb H37Rv | RecA splice inh | Mtb bLac sens | Arbovirus anti | others
C=C1N2CCC(CC2)C1(O)c1ccc(C)c(C)c1 (stereo not drawn) | -18 | -9% | 3.5 | -10 | -1
O=C(O)Cc1sc(-c2cccnc2)nc1-c1ccc(Br)cc1 | · | 6% | 5.5 | -4 | 0
CCN(CC)c1ccc(NC(=O)Cn2cc3c(n2)CCC(C)C3)c(C)c1 (stereo not drawn) | -1 | -3% | -4.2 | -1 | -4 | Arbovirus anti repeat=0
CCOc1ccccc1-n1nnnc1SCc1nc2ccccc2s1 | -33 | · | 8.7 | 1 | -3
Cn1c(=O)c2c(nc(NCCNC(=O)c3ccco3)n2Cc2ccccc2F)n(C)c1=O | · | · | -2.1 | -5 | ·
O=C(NCC1CC1)Nc1cccc(C(F)(F)F)c1 | · | · | 2.5 | 7 | ·
COc1ccc(C/C(C)=N/NC(=O)C2COc3ccccc3O2)cc1 (stereo not drawn) | · | 0% | -4.2 | -4 | -3
COc1ccc(-c2nn(-c3ccccc3)cc2/C=C/C(=O)OCC(=O)Nc2cccc(C#N)c2)cc1 | -12 | 10% | 2.2 | 3 | -10
Cc1ccccc1-n1nnnc1Sc1nnnn1-c1ccccc1 | -13 | -3% | · | 91 | -34
O=C(c1cc(Cl)ccc1O)N1CCN(S(=O)(=O)c2cccs2)CC1 | · | · | 1.2 | -10 | ·
Cc1ccc(NC(=O)CCn2nnc3ccccc32)cc1 | · | 4% | 0.5 | -10 | -1
O=c1c2ccccc2nc(SCc2ccccc2)n1CC1CCCO1 (stereo not drawn) | · | 14% | -5.7 | 8 | ·
COCCCNc1ccc([N+](=O)[O-])cc1C(=O)Nc1cccc(C)n1 | · | 10% | 1.9 | 7 | -5
O=C(O)c1ccc(NC(=O)c2ccco2)c(NC(=O)c2ccco2)c1 | · | · | 0.9 | 1 | ·
O=C(NCCc1c[nH]c2ccccc12)C1CCN(c2nnc(N3CCCC3=O)s2)CC1 | -34 | 2% | · | 6 | 9
COC(=O)c1cccc(CSc2nc3ccccc3[nH]2)c1 | -18 | 10% | 1.4 | -1 | -1
CC(C)(C)c1ccccc1OCC(=O)NCCCn1ccnc1 | · | · | -1.2 | 3 | ·
O=S1(=O)CC2SC(=S)N(c3ccccc3)C2C1 (stereo not drawn) | · | 1% | -3.3 | -9 | ·
O=C(CSc1nnc2ccc3ccccc3n12)N1CCOCC1 | -25 | 2% | -2.3 | 4 | -7
COc1ccc(C(=O)c2coc(-c3ccccc3C(=O)O)c2C(=O)O)cc1 | -33 | -8% | -0.3 | -4 | 2
CCc1cc2c(-c3ccccc3)cc(=O)oc2cc1OCC(=O)NCC1CCC(C(=O)O)CC1 (stereo not drawn) | · | · | -0.4 | -2 | ·
O=C(Sc1nnc(-c2ccccc2)o1)N1c2ccccc2Sc2ccccc21 | -8 | 76% | 57* | 91 | 5 | Arbovirus anti repeat=-1
CC(CN1CCOCC1)OC(=O)Cc1ccccc1 (stereo not drawn) | · | -1% | -0.1 | -6 | 1
CCOC(=O)c1nnc(-c2ccc(C)cc2)nc1N1CCSCC1 | · | -3% | 5.8 | 3 | -2
CC(C)(C)S(=O)(=O)c1cnc(N2CCCC2)nc1N | · | 0% | -0.2 | 1 | ·

Structures from the list above with a nitro group on carbon, in the order listed:
SMILES | YopH inh | Mtb H37Rv | RecA splice inh | Mtb bLac sens | Arbovirus anti | others
O=[N+]([O-])C(/C=C(\Cl)[N+](=O)[O-])=C(N1CCCCC1)N1CCCCC1 | · | -5% | · | 49 | -15
O=C(Cc1ccccc1)Nc1cc([N+](=O)[O-])ccc1N1CCOCC1 | · | 1% | -1.4 | 15 | 0
COCCCNc1ccc([N+](=O)[O-])cc1C(=O)Nc1cccc(C)n1 | · | 10% | 1.9 | 7 | -5

Filtered by structure: the compounds so far containing an NH in an aromatic ring.
SMILES | YopH inh | Mtb H37Rv | RecA splice inh | Mtb bLac sens | Arbovirus anti | others
Cc1nnc(SCc2cc(=O)[nH]c(=S)[nH]2)s1 | · | 1% | -0.5 | 0 | 5
O=C(NCCc1c[nH]c2ccccc12)C1CCN(c2nnc(N3CCCC3=O)s2)CC1 | -34 | 2% | · | 6 | 9
COC(=O)c1cccc(CSc2nc3ccccc3[nH]2)c1 | -18 | 10% | 1.4 | -1 | -1

Other structures:
SMILES | YopH inh | Mtb H37Rv | RecA splice inh | Mtb bLac sens | Arbovirus anti | others
COC(=O)c1cc(S(=O)(=O)NCc2ccc(F)cc2)cn1C | · | · | -0.7 | ? | ·
COc1ccccc1N1CCN(c2nc3ccccn3c(=O)c2C=O)CC1 | -26 | -13% | -2.5 | -3 | 5
Cn1c(CC(=O)Nc2ccc(Cl)c(Cl)c2)n[nH]c1=S | · | -1% | 3.7 | 0 | 15
Cc1c(Br)cc(C(=O)NCCCN2CCOCC2)c(C)c1C | -51 | -3% | -2.4 | -9 | -4 | Arbovirus anti repeat=-2
CCOc1ccc(CNC23CN4CN(CN(C4)C2)C3)cc1 | 0 | -9% | · | 1 | 1
Cc1ccccc1NC1=C(Cl)C(=O)OC1NC(=O)c1ccccc1 (stereo not drawn) | -20 | 6% | -2.2 | -8 | 2
Cc1cc(C)c2sc(NC(=O)C3CC3)nc2c1 | · | · | 0.1 | 3 | ·
Cc1cccc(N(CC(=O)N2CCN(C)CC2)S(=O)(=O)c2ccccc2)c1 | · | 1% | 2.4 | -13 | 2
Cc1c(OCC(=O)C(C)(C)C)ccc2c3c(c(=O)oc12)CCCC3 | · | · | 7.6 | 0 | ·
O=C(O)c1cccc(NC(=O)c2ccccc2NC(=O)c2cccc([N+](=O)[O-])c2)c1 | · | · | -1.5 | -5 | ·
CSc1cccc(NC(=S)Nc2cc(C)ccc2C)c1 | · | -3% | 5.0 | 42 | ·
COc1ccc(/C=C/C(=O)O)cc1S(=O)(=O)N1CCc2ccccc2C1 | · | 2% | 1.8 | 0 | -10
O=C(CSc1nccn1-c1ccc(F)cc1)NCc1ccc(F)cc1 | · | -2% | 4.2 | -6 | -1
CCCCC(O)(c1ccccc1)C(CN1CCOCC1)c1ccccc1 (stereo not drawn) | · | · | 3.9 | 5 | ·
CCCCn1c(C(C)NC(=O)CCC)nc2ccccc21 (stereo not drawn) | 5 | -3% | 5.4 | -4 | -3 | Arbovirus anti repeat=1
O=C1NC(=O)N(c2ccc(F)cc2)C(=O)/C1=C/c1ccc(N2CCOCC2)cc1 | · | -8% | -2.1 | -3 | 4
CCn1cc(S(=O)(=O)Nc2cccnc2)cn1 | · | · | 1.5 | 0 | ·
CCOC(=O)NN1C(=O)c2ccccc2NC1c1cccnc1 (stereo not drawn) | · | -5% | -1.3 | -1 | 0
O=C(O)/C=C/C(=O)NC1CCS(=O)(=O)C1 (stereo not drawn) | -21 | -2% | -0.1 | 4 | 1
CC(C)CN1CCC(=O)N(CCN=[N+]=[N-])CC1 | · | · | -3.9 | -9 | ·
CCC(C)NC(=S)N1CCN(C)CC1 (stereo not drawn) | · | · | -1.7 | 1 | -2
O=C(CN1C(=O)CSC1=O)c1ccccc1 | -50 | -2% | 2.8 | -1 | -2
CCN1CCN(c2ccc(S(=O)(=O)N3CCOCC3)cc2NC(=O)/C=C/c2ccc(OC)c(OC)c2)CC1 | · | · | -1.0 | 6 | ·
Cc1nn(-c2ccccc2)c(N)c1N=Nc1ccccc1 | -10 | 6% | 11 | 21 | 12
COC(=O)c1cn(NC(=O)c2cccc(F)c2)c(=O)c2ccccc12 | 8 | -7% | 1.6 | -5 | 0
Next entries.
SMILES | YopH inh | Mtb H37Rv | RecA splice inh | Mtb bLac sens | Arbovirus anti | others
Cc1[nH]c(=O)c(C#N)c(C)c1CSc1ncccn1 | · | · | -1.2 | 28 | ·
CC(C)[C@H](NC(=O)c1ccccc1)C(=O)OCC(=O)N1CCCCCC1 | -17 | -10% | -2.7 | 1 | -2
COc1ccc(Br)cc1C(=O)Nc1ccc(NC(=O)c2ccco2)cc1 | -8 | 0% | -1.7 | -5 | -2
CCCCOc1ccc(Cc2cnc(N)nc2N)cc1 | · | 6% | · | -3 | ·
O=C(CSc1nc2[nH]ncc2c(=O)[nH]1)Nc1ccccc1 | · | -3% | -1.6 | -2 | -7
N[C@@H](Cc1c[nH]c2ccccc12)c1nnc(SCc2ccccc2F)o1 | -32 | 2% | -1.6 | 4 | -4
CN(C)S(=O)(=O)c1ccc(NS(=O)(=O)/C=C/c2ccccc2)cc1 | -8 | -13% | -1.9 | 1 | 6
CC(=O)c1sc(NC(=O)COc2ccc(Cl)cc2Cl)nc1C | · | -2% | -1.4 | 2 | -13
OC(CN1CCCCC1)CN(c1ccccc1)c1ccccc1 (stereo not drawn) | -27 | -3% | · | 2 | 3
Cc1ccc(-n2nc(C(=O)O)cc2-c2ccc(Cl)cc2)cc1 | · | 3% | · | 2 | -10
CCOc1ccccc1Nc1nnc(SCc2nnc(-c3cc(OC)c(OC)c(OC)c3)o2)s1 | -43 | 1% | 5.3 | 3 | 3
Cc1cc(OCCCCCn2ccnc2)cc(C)c1Cl | · | 4.2µM* | 12 | 100 | -23
COCCn1c(=O)c2c(nc3n2CC(C)CN3CCc2ccccc2)n(C)c1=O (stereo not drawn) | · | · | -0.5 | -3 | ·
O=P(Nc1cccc(Cl)c1)(Oc1ccccc1)Oc1ccccc1 | · | 9% | 16 | 17 | -24
Cc1cccc(NC(=O)CCNS(=O)(=O)c2cccc3nonc23)c1C | · | 1% | 0.8 | 0 | -2

Bioassay records as filed in PubChem BioAssay.
